High-throughput results as filed in PubChem.
Yeast UUG start: modulators of start codon recognition fidelity in yeast; activity score, % at 18.7 µM; S. cerevisiae UUG-firefly luciferase reporter, luminescence/redox ratio; AID 602363; 350,000 tested, 0.13% active;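 active means replicate mean at a twofold rise or more, about +100% in these data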;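 further: firefly luciferase made from a UUG start codon reports start codon fidelity; reporter light over untreated wells divided by growth signal over untreated wells; some hits fall short of that in this replicate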
HIV Env fusion: blocks HIV Env-driven cell-cell fusion; HeLa-JRFL Env/CEM21 cell fusion, luciferase; 360,000 tested, 1.1% active; AID 651610; inhibition, % at 12.3 µM;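 active means mean replicate inhibition score of at least 50 and every replicate individually at or above 50; inconclusive means only one of the two criteria met; inactive means mean below 50 and not all replicates reaching 50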;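 further: 0% = plate neutral controls and 100% = maraviroc near 300 nM; one replicate is shown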
MT1-MMP act inh: blocks activation of human MT1-MMP | P50281 | HT1080 RFP-PRO-GFP cells, GFP/RFP ratio fluorescence, overnight; percent of plate control window, DMSO zero | GFP/RFP ratio change, % at 20 µM | 360,000 tested, 0.061% active | AID 651647;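 active means GFP/RFP ratio change of at least 30% with cell ATP level not reduced by more than half and red fluorescence within 50% of control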; further: strong numbers were not always called active
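Compound: 20 µM single dose, 1% DMSO / System: HT1080 RFP-PRO-GFP cells / Controls: DMSO and RFP-L50D-GFP cell wells / Read-out basis: GFP/RFP fluorescence ratio / Schedule: overnight compound exposure at 37 °C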
eIF4H FP inh: inhibitors of RNA binding by human eIF4H; eIF4H fluorescence polarization binding assay; 290,000 tested, 0.94% active; AID 2012; inhibition, % at 35 µM; Q15056;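 active means 50% or more with normal probe brightness, or confirmed in later tests; inconclusive means above 50% with abnormal brightness, or retests that disagree; inactive means below 50% or failed in later tests; about a fifth of its hits are not listed in these tables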;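 further: calls also rest on retests at 20 µM and on dose response follow-up; 0% = protein and probe with vehicle and 100% = probe without protein; strong numbers were not always called active; many hits fall short of the cut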
PABP polyA inh: PABP-poly(A) binding inhibition; 290,000 tested, 1% active; AID 2014; inhibition, % at 35 µM; PABP-poly(A) RNA binding, fluorescence polarization; P11940;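 active means 50% or more with normal probe brightness, or confirmed in later tests; inconclusive means above 50% with abnormal brightness, or retests that disagree; inactive means below 50% or failed in later tests; about a fifth of its hits are not listed in these tables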;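 further: calls also rest on retests at 20 µM and on dose response follow-up; controls were probe without protein and protein plus probe with vehicle; some compounds called inactive have numbers as strong as hits; many hits fall short of the cut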
Target sequence (P11940 whole entry, looked up): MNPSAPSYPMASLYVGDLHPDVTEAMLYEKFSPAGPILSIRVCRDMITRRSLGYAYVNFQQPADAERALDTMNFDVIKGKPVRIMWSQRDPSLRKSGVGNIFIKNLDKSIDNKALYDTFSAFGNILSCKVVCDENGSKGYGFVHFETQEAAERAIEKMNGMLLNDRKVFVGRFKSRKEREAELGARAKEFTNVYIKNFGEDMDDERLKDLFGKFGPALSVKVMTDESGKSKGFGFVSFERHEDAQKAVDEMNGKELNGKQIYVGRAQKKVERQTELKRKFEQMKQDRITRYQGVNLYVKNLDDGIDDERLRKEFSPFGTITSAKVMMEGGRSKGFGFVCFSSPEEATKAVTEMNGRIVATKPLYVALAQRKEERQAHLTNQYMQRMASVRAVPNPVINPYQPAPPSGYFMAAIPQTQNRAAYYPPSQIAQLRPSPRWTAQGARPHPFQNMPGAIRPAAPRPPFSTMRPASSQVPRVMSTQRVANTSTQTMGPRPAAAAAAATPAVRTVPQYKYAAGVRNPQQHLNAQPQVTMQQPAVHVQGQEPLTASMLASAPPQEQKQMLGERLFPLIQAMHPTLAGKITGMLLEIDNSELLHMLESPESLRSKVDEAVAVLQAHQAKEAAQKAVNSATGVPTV
CSC inhib: cancer stem cell inhibition; cancer stem cell-like cells viability, luminescence; inhibition, % at 7.5 µM; 300,000 tested, 1.1% active;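 active means mean at 75% or more and at least half the replicates too; inconclusive means mean and replicates disagree; tested in HMLE shEcad cells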;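 further: 0% = median of negative and 100% = median of positive control wells; the first replicate is given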
Rce1 inh: blocks yeast Ras-converting enzyme. yeast membranes, quenched prenylated peptide cleavage fluorescence. calls only. 290,000 tested, 0.27% active. AID 2563;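 active means fall in fluorescence gain of 50% or more versus controls, with final raw signal at or below 3038400; inconclusive means same 50% fall but final raw signal above 3038400; inactive means fall in fluorescence gain under 50%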;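 further: plate controls were neutral control wells for no effect and wells lacking membranes for full effect; tested at 10 µM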
eIF4H FP inh retest: further read-out of eIF4H FP inh, marked with its call; inhibition, %; compound at 20 µM; confirmation average;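 mean of two retest wells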
PABP polyA inh retest: further read-out of PABP polyA inh, marked with its call; inhibition, %; compound at 20 µM; confirmation repeats;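 mean of two retest wells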
MT1-MMP act inh RFP: second read-out of MT1-MMP act inh, no call of its own (marks repeat the call); RFP signal change, %; measured here: RFP expression control read;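 0 = vehicle wells; hits needed this value within 50% of zero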
Active calls of the source: *; i = inactive; ? = inconclusive; · = no result given. Rows were taken by chance (roughly 2.9% active in at least one column).

Start of the listing, in advance (two entries):
SMILES	Yeast UUG start	HIV Env fusion	MT1-MMP act inh	MT1-MMP act inh RFP	eIF4H FP inh	PABP polyA inh	CSC inhib	Rce1 inh	others
CC(C(=O)N1CCCC1)c1ccc([N+](=O)[O-])cc1 (configuration not stated)	·	23	-4	5	-7	0	7	i
OCCN1CNC(=S)NC1	-23	-12	0	3	-8	3	-5	i

The listing, from the start:
SMILES	Yeast UUG start	HIV Env fusion	MT1-MMP act inh	MT1-MMP act inh RFP	eIF4H FP inh	PABP polyA inh	CSC inhib	Rce1 inh	others
CC(C(=O)N1CCCC1)c1ccc([N+](=O)[O-])cc1 (configuration not stated)	·	23	-4	5	-7	0	7	i
OCCN1CNC(=S)NC1	-23	-12	0	3	-8	3	-5	i
COc1ccccc1Oc1ccc(N/C=C2/CCCC2=O)cc1	-13	-17	3	-1	7	3	-8	i
COc1ccc(NC(=O)Nc2ccc(F)cc2F)cc1	·	-32	4	2	-15	-8	17	i
CCOc1ccc(-n2c(Cc3cc(=O)[nH]c(=O)[nH]3)nnc2SCC)cc1	5	-22	-3	7	-2	0	-6	i
N#CC1=C(Nc2ccccc2)SC=C(c2ccc(Cl)c(Cl)c2)N=C1N1CCOCC1	-4	·	-7	1	-6	-2	-6	i
Cc1cc2c(n1-c1ccc(Br)cc1)CC(C)(C)CC2=O	1	-26	1	-3	-3	-5	-11	i
COc1ccc(C(=O)N2CCCCC2c2cc(C(=O)Nc3cccc(C#N)c3)no2)cc1 (configuration not stated)	-12	1	4	2	·	·	·	·
CCCCN(CCCC)S(=O)(=O)c1ccc(OC)c2ncccc12	-6	·	-4	-2	5	-2	0	i
O=C1CC(c2ccccc2)n2nc(NC(=O)c3ccccn3)nc2N1 (configuration not stated)	-18	·	5	0	2	-4	1	i
CCCCC1(C(=O)OCC)CC(CSC(=N)N)OC1=O (configuration not stated)	·	12	2	4	4	4	-15	i
CSCCC(NC(=O)c1ccco1)C(=O)NCCc1ccc(Cl)cc1 (configuration not stated)	-5	-6	-2	-1	·	·	·	·
Cn1cc(CN2CCN(c3ccc(Cl)cn3)CC2)c(-c2ccccc2F)n1	-7	7	5	-4	3	-2	-5	i
Cc1ccccc1OCC(=O)Nc1nc2ccccc2[nH]1	·	-7	3	3	-5	-2	-12	i
COC(=O)c1ccccc1NC(=O)CNC(=O)c1ccc(OC)cc1	264*	0	4	1	15	2	5	i
Cc1ccc(S(=O)(=O)CCC(=O)OCC(=O)NC(=O)c2ccccc2)cc1	-10	-32	-3	4	·	·	-8	i
CCOC(=O)CNC(=O)CSc1nnc(NC(=O)c2ccc3c(c2)OCO3)s1	-2	-25	-2	2	-8	-5	10	i
N#C/C(=C/c1cn(-c2ccccc2)nc1-c1cccc(S(=O)(=O)N2CCCC2)c1)C(=O)NCc1ccco1	-21	4	-7	-10	44	-7	6	i
Cc1nn(C)c(Oc2ccccc2)c1CCNS(=O)(=O)c1ccc(F)cc1	-45	14	1	-7	2	-2	-17	i
CC1CCN(c2c(NCc3ccc(C(=O)NCCc4ccc(Cl)cc4)cc3)c(=O)c2=O)CC1	-23	23	7	-9	5	-4	19	i
CC(=O)Nc1nnc(C)s1	-5	5	1	4	-6	-6	-5	i
CC(C)(C)c1cc(NC(=O)C2(C)CCN2C(=O)c2ccccc2CCc2ccccc2)no1 (configuration not stated)	-18	31	-1	-8	·	·	·	·
Cc1nnc(SCC(=O)N(C2CCCCC2)C2CCS(=O)(=O)C2)n1C (configuration not stated)	-19	0	1	3	·	·	-23	·
COc1ccc(CSc2nnnn2-c2ccc(C(=O)O)cc2)cc1	7	-9	-6	0	-4	3	-2	i
Brc1ccc2[nH]c3c(NCc4ccccn4)ncnc3c2c1	-27	26	8	-11	-3	-6	47	i
COc1ccc(-c2[nH]ncc2CN(C)C(C)c2ccon2)cc1F (configuration not stated)	·	2	-2	1	-4	-7	9	i
Cc1cccc(-c2nnn(Cc3nnc(NC(=O)c4ccccc4)s3)n2)c1	-47	·	4	0	-2	-1	-2	i
Cc1ccc(C(=O)NCC(=O)N(C)Cc2ccccc2C)s1	-4	-7	-2	-1	·	·	·	·
CC(=O)[C@H]1CC[C@H]2[C@@H]3CC=C4C[C@@H](OS(=O)(=O)O)CC[C@]4(C)[C@H]3CC[C@]12C	2	0	5	6	·	·	·	·
CCOc1ccccc1C1C(C#N)=C(SCC(=O)OC)NC(=O)C1C(=O)OC (configuration not stated)	-8	3	3	7	6	-2	0	i
O=C(CN1CCN(S(=O)(=O)c2ccccc2[N+](=O)[O-])CC1)NC(=O)NCc1ccco1	·	-19	-1	1	16	2	-8	i
O=C(O)c1cc(S(=O)(=O)N2CCCCC2)ccc1N1CCCC1	-9	3	-1	3	·	·	-8	·
CCOc1ccc(S(=O)(=O)N2CCN(CC)CC2)cc1NC(=O)c1ccccc1F	-4	-4	2	4	-2	0	-4	i
COc1ccccc1NC(=O)C1=C(C)Nc2nc(CCCO)nn2C1c1ccc2c(c1)OCO2 (configuration not stated)	14	·	-2	1	-3	-2	-13	i
COC(=O)NC1CCS(=O)(=O)C1 (configuration not stated)	·	-48	3	9	-9	6	0	i
CC(=O)N1CCCN(Cc2nc(C3(c4ccc(C)cc4)CCCC3)no2)CC1	·	-3	1	4	-6	5	·	i
Cn1c(C=O)c(-c2ccc3c(c2)OCCO3)c2ccccc21	-9	-33	0	1	·	·	-12	·
Cc1cccc(OCCCC(=O)Nc2ccc(S(=O)(=O)N3CCCC3)cc2)c1	-6	3	-2	-12	-4	-7	-13	i
OC(COc1ccc(F)cc1)CN1CCN(c2ccccc2F)CC1 (configuration not stated)	-15	1	-1	2	-3	17	-1	i
Clc1ccc(Nc2ccccc2)nn1	·	-5	5	8	-2	5	-15	i
CN(C(=O)COC(=O)c1ccc(C(C)(C)C)cc1)C1CCS(=O)(=O)C1 (configuration not stated)	-11	-108	-2	6	·	·	-18	i
N#Cc1ccc(OCCN2CCc3ccccc3C2)cc1	·	2	-2	-4	·	·	-6	·
N#C/C(=C\N1CCOCC1)C(N)=O	0	10	2	5	-1	4	-7	i
Nc1cc(-c2ccccc2)n2c(n1)nc1ccccc12	-13	-6	2	-5	0	0	-3	i
COc1ccc(C(CC(=O)O)NC(=O)C2CCCCC2)cc1 (configuration not stated)	-13	-28	4	9	-2	-4	-9	i
FC(F)(F)c1cccc(N2CCN(Cc3cccnc3)CC2)c1	-19	5	-2	1	0	-11	30	i
CCOC(=O)C1CN(S(=O)(=O)c2ccccc2)C1	-13	7	-2	2	-2	-2	-11	i
CC(=O)c1cc(Cl)ccc1OC(=O)c1ccco1	-5	·	-1	5	-8	12	1	i
O=C(Nc1ccccc1)c1cc(C2CCCCN2C(=O)c2ccccc2)on1 (configuration not stated)	-9	14	3	-1	·	·	·	·
N#Cc1nc(COc2ccccc2)oc1N1CCCCCC1	-17	23	-3	-5	11	-1	7	i

Next part.
SMILES	Yeast UUG start	HIV Env fusion	MT1-MMP act inh	MT1-MMP act inh RFP	eIF4H FP inh	PABP polyA inh	CSC inhib	Rce1 inh	others
COc1ccccc1CN(C)C(=O)CN1CCN(C(=O)c2cccs2)CC1	-26	68*	0	0	·	·	2	·
O=C(NCc1ccccc1)C1=C[C@@H](c2csc3ccccc23)C[C@@H](OCCCCO)O1	·	81*	·	·	-17	6	14	i
O=C(ONc1ccc(N=NC(=O)c2ccccc2O)cc1)c1ccccc1	-17	·	-4	2	1	-1	·	i
CCOC(=O)c1cc(-c2ccccc2C)nn1CC1CC(c2cccnc2)=NO1 (configuration not stated)	-7	-13	3	1	·	·	·	·
O=C1CCC([N+](=O)[O-])C(c2ccc(Br)cc2)N1 (configuration not stated)	·	-6	5	9	0	8	-15	i
COc1ccc(C(=O)NCCn2cc(SCC(=O)N3CCOCC3)c3ccccc32)cc1	-24	·	-7	-4	8	-4	·	i
CC(=O)Nc1ccc(NC(=O)CSc2nnc(-c3ccccc3)n2Cc2ccc3c(c2)OCO3)cc1	-12	·	-1	0	-3	-7	-26	i
O=[N+]([O-])c1ccccc1Oc1cnc2ccccc2n1	-28	-5	-4	-1	24	-13	-10	i
CCOC(=O)c1c(NC(=O)Cn2nc(C(F)(F)F)cc2C)sc(C)c1C	-4	11	·	·	-2	-5	1	i
CC(=O)N1CCN(Cc2cc(=O)oc3cc(C)c(C)cc23)CC1	-2	1	4	6	·	·	·	·
CC1(C)CC(=O)c2cnc(N)nc2C1	3	-16	3	2	-3	-5	-1	i
Cc1ccccc1CN1CCC(N2CCC(C(=O)NCC3CCCO3)CC2)CC1 (configuration not stated)	-3	-25	2	3	13	0	-7	i
Cc1ccc(-c2n[nH]c(=O)c3ccccc23)cc1S(N)(=O)=O	-17	8	-3	1	-8	2	-13	i
Cc1cc(C)cc(N(CC(=O)NC2CCCC2)C(=O)c2csnn2)c1	-17	-6	1	4	0	5	1	i
O=C1CC(=O)NC(SCC(=O)Nc2ccccc2[N+](=O)[O-])=N1	-4	15	0	6	78*	60*	-8	i
CC(C)(C)C(=O)Nc1ccc(C(=O)OC2CCCCC2)cc1	2	·	-8	-3	-3	-2	-7	·
CC1Cc2ccccc2N1C(=O)CSc1ncccn1 (configuration not stated)	-11	-8	-2	-3	·	·	-4	i
COc1cc(CCCN2CCNC[C@H]2Cc2cccc3ccccc23)cc(OC)c1OC	-7	-4	-1	2	·	·	-5	·
C=CCNC(=O)CSc1cc([N+](=O)[O-])cc(S(=O)(=O)Cc2ccccc2)c1	3	6	-4	1	4	2	-1	i
C/C(=N\NC1=NCCN1)c1ccc(N)c([N+](=O)[O-])c1	·	2	3	5	4	-3	-2	·
O=C(NCCCN1CCOCC1)c1cc(Cl)ccc1OCc1ccccc1	-27	11	-6	-2	5	2	27	i
Cc1[nH]c2ccccc2c1C(=O)CN1C(=O)C(=O)N(CCC2=CCCCC2)C1=O	-16	1	4	-3	·	·	·	·
O=C(O)CCN1C(=O)c2ccc(NC(=O)c3ccco3)cc2C1=O	-4	-11	-3	0	-9	-7	·	i
CCOc1cc2c(C#N)c(N3CCNCC3)nc(N)c2c(N)n1	-33	-73	-19	1	?	?	2	i
Cc1cc(NC(=O)c2cccc(S(=O)(=O)N3CCCC3)c2)no1	-20	4	3	6	11	4	12	i
O=C(C(Sc1ccccc1)c1ccccc1)N1CCOCC1 (configuration not stated)	-11	-22	6	7	-20	-9	9	i
Cc1cc(-c2cccs2)nc(-n2cccc2)n1	-18	-105	7	1	?	?	8	i
CC(=O)C1=C(C)NC(=O)NC1c1cc(Br)ccc1OCC#N (configuration not stated)	-3	-61	4	2	-3	6	19	i
Cc1ccsc1/C=C1\SC(N2CC(C)OC(C)C2)=NC1=O (configuration not stated)	·	6	-5	-3	62	11	-15	i	eIF4H FP inh retest=0;PABP polyA inh retest=5
Cn1cc(Cl)c(C(=O)NC(=S)Nc2sc3c(c2C#N)CCCCC3)n1	·	-42	5	7	2	8	17	i
CCC(=O)Oc1oc(-c2ccccc2)nc1C=Nc1ccc(C)cc1	-6	15	0	4	-4	14	-12	i
Oc1ccc(Br)cc1CNc1nccs1	-6	-7	1	-1	4	-5	-1	i
Cc1nn(CC(=O)N2CCN(C)CC2)c(=O)c2ccccc12	-8	2	-2	-1	-2	-7	-9	i
